Screening data from PubChem BioAssay.
MLL AF4-AF9 inh: inhibitors of AF4 peptide binding to AF9, primary screen, biochemical, AlphaScreen, biotin-AF4 peptide, FLAG-AF9, single point; inhibition, % at 10 µM; 0.47% of 350,000 active; AID 651704, 2012;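 active = every replicate reaching a set inhibition limit, whatever the replicate mean, cut at about 25% in these data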;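 note: 0% = plate neutral control median and 100% = total signal loss; the record names both 10 and 1 µM as test concentration; the first replicate is given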
Target sequence (P42568 whole entry, looked up): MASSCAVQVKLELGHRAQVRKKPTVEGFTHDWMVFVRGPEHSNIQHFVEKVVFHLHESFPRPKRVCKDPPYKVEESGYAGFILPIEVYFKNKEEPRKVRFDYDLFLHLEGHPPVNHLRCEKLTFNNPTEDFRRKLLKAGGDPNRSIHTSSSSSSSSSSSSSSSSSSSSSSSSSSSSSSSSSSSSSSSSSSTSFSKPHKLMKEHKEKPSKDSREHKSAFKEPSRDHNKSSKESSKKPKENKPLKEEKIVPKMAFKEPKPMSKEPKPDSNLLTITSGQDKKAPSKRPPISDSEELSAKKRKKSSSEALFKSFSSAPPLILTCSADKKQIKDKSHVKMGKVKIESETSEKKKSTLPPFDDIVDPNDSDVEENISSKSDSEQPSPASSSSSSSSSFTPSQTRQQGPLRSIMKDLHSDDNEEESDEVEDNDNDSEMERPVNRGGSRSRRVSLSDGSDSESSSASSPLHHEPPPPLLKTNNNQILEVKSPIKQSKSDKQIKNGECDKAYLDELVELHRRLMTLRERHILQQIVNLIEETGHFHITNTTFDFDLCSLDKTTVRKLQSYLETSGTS
Ecoli rRNA inh: reduced GFP signal of wild-type E. coli, primary screen, bacterial rRNA inhibitor project, GFP/RFP fluorescence, OD600, single point; 1.6% of 350,000 active; GFP signal change (wild-type ribosome), % (test concentration not listed); E. coli WT GFP vs humanized-ribosome RFP mutants, 24 h; hits give low values; DMSO median 0, no signal -100;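 active = significant combined selectivity score with lowered wild-type GFP, culture density cut under 30%, mutant RFP and density less affected; inactive = any of these conditions unmet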; note: one replicate is shown; some compounds called inactive have numbers as strong as hits
Ecoli rRNA inh OD600: second read-out of Ecoli rRNA inh, no call of its own (marks repeat the call); OD600 change, %; measured here: OD600 growth;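 optical density of the mix in the first replicate; 0 = DMSO median and -100 = no signal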
Ecoli rRNA inh RFP: recorded beside Ecoli rRNA inh, whose call it bears; RFP signal change, %; measured here: RFP humanized mutant strains;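 first replicate; 0 = DMSO median and -100 = no signal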
An asterisk follows results filed as active; & = joins results of further samples.

Fields – MLL AF4-AF9 inh, Ecoli rRNA inh, Ecoli rRNA inh OD600, Ecoli rRNA inh RFP
> O=C(NCC[C@H]1CC[C@H](NC(=O)C2CCC2)[C@@H](CO)O1)Nc1ccc(Cl)cc1
→ 17.9, -62.1, -78.1, -28.8
> C[C@@H]1CN([C@@H](C)CO)C(=O)c2cc(NC(=O)CCCN(C)C)ccc2O[C@@H](C)CCCCO[C@H]1CN(C)CC1CCCCC1
→ 0.4, 1.9, 0.5, -2.5
> CO[C@H]1CN(C)C(=O)c2cc(NS(C)(=O)=O)ccc2OC[C@H](C)N(C(=O)C2CCC2)C[C@H]1C
→ 1.6, 0.7, 3.9, 0.4
> O=C(C[C@@H]1C[C@H]2c3cc(NC(=O)C4CCOCC4)ccc3O[C@H]2[C@H](CO)O1)NCc1cc(F)ccc1F
→ 2.8, -5.2, -1.0, -3.0
> CCc1cnc(N2[C@@H](C#N)[C@@H](c3ccc(C#Cc4ccccc4F)cc3)[C@@H]2CO)s1
→ -1.8, 1.9, -24.1, -3.3
> CCNC(=O)C[C@@H]1CC[C@@H]2[C@@H](COc3ccc(NS(=O)(=O)c4ccccc4C)cc3C(=O)N2C)O1
→ -2.3, -0.3, 1.7, -2.0
> O=C(NCCc1ccccc1)c1ccc(S(=O)(=O)N2CCCCC2)cc1
→ -2.0, 4.4, 9.6, -2.8
> COc1ccc2c3c([nH]c2c1)[C@@H](CO)N(S(C)(=O)=O)CC31CCN(CC2CCCCC2)CC1
→ 2.8, -1.3, -1.4, -1.6
> C[C@@H]1CCCCO[C@@H](CN(C)S(=O)(=O)c2cccs2)[C@@H](C)CN([C@H](C)CO)C(=O)c2cc(NS(=O)(=O)c3ccccc3)ccc2O1
→ 1.2&-11.5, 9.5&-1.1, 8.1&10.3, 3.6&-4.0
> O=C(C[C@H]1C[C@@H]2c3cc(NC(=O)C4CCC4)ccc3O[C@@H]2[C@H](CO)O1)NCc1ccc(Cl)cc1
→ -0.4, 5.2, 10.1, -0.7
> CN1CCN(C(=O)C[C@@H]2CC[C@H](NS(=O)(=O)c3cccc(F)c3)[C@H](CO)O2)CC1
→ -0.4, 0.8, 2.8, -2.4
> CC(C)C[C@@H](CN1CCCC1CN1C(=S)NC[C@@H]1Cc1ccccc1)N1C[C@H](Cc2ccccc2)N(CC2CCCCC2)C1=S (some centres not stated)
→ -0.3, 10.3, 2.2, -2.2
> COc1ccccc1C#Cc1ccc([C@@H]2[C@@H](C#N)N(C(=O)C3CCCC3)[C@H]2CO)cc1
→ -2.9, -0.1, -14.6, 24.5
> C[C@@H]1CN([C@H](C)CO)C(=O)c2cc(-c3ccccc3)cnc2O[C@H]1CN(C)C(=O)Nc1ccc2c(c1)OCO2
→ 4.4, 1.0, 0.5, -1.7
> O=C(C[C@@H]1CC[C@@H](NC(=O)C2CCC2)[C@H](CO)O1)Nc1nccs1
→ -2.9, -0.6, -1.2, -1.6
> Cc1noc(C)c1NC(=O)Nc1ccc2c(c1)C(=O)N([C@@H](C)CO)C[C@H](C)[C@H](CN(C)C(=O)CCCN(C)C)OCCCC[C@H](C)O2
→ -1.6, 2.8, -0.9, -1.0
> Cc1cc2nc(-c3nnnn3-c3c(C)cccc3C)c(=O)[nH]c2cc1C
→ 1.0, 16.2, -3.1, 3.3
> COc1ccc2c3c(n(C)c2c1)[C@@H](CO)N(C(=O)c1cccc(F)c1)CC31CN(C(=O)c2cccc(F)c2)C1
→ 5.3, -4.0, -15.6, -0.5
> C[C@@H]1CN([C@H](C)CO)C(=O)c2cc(NC(=O)Nc3ccc(F)cc3)ccc2O[C@H]1CN(C)S(C)(=O)=O
→ -2.1, 0.2, 7.2, -0.9
> COc1cccc(C#Cc2ccc([C@@H]3[C@H]4CN(C(C)=O)CC(=O)N4[C@H]3CO)cc2)c1
→ -3.7, -3.0, -0.5, 2.7
> CC(C)(C)OC(=O)N(CCc1ccccc1)Cc1ccc(OCc2cccc(NC(=O)c3ccccc3)c2)cc1
→ -0.4, 8.8, 7.8, 4.4
> COc1cccc(S(=O)(=O)N(C)C[C@@H]2Oc3cc(C#CCN(C)C)ccc3S(=O)(=O)N([C@@H](C)CO)C[C@@H]2C)c1
→ 3.1, -0.6, -1.3, 0.0
> C[C@H](CO)N1C[C@H](C)[C@H](CN(C)Cc2cccc(C(=O)O)c2)Oc2ncc(C#CCc3ccccc3)cc2C1=O
→ -2.2, 0.2, 4.2, -2.5
> C[C@@H]1CN([C@H](C)CO)C(=O)c2cc(NS(=O)(=O)c3cccs3)ccc2O[C@@H](C)CCCCO[C@@H]1CN(C)S(C)(=O)=O
→ -0.9, 0.1, 3.4, -1.5
> COc1ccc(CN2CC3(C2)CN(C(=O)CN(C)C)[C@@H](CO)c2[nH]c4cc(OC)ccc4c23)cc1
→ 9.1, 3.6, 4.4, -1.3
> CCCNC(=O)N1[C@H](C#N)[C@@H](c2ccccc2C2=CCCCC2)[C@@H]1CO
→ -0.4, -41.8, -66.2, -5.4
> O=C(CN1C(=O)NC2(CCc3ccccc32)C1=O)NC1CCCCC1 (configuration not stated)
→ -13.8, 7.3, 4.1, 3.7
> COc1ccc2c3c(n(C)c2c1)[C@H](CO)N(C(=O)NC1CCCC1)CC31CCN(C)CC1
→ 8.0, 5.0, 7.3, 3.0
> C/C=C/c1ccc2c(c1)O[C@H](CN(C)CC1CCCC1)[C@@H](C)CN([C@H](C)CO)S2(=O)=O
→ 6.5, -12.8, -29.8, 0.9
> C[C@H](CO)N1C[C@H](C)[C@@H](CN(C)S(=O)(=O)c2ccccc2)Oc2ccc(NC(=O)Nc3ccc4c(c3)OCO4)cc2CC1=O
→ 6.4, 3.7, 1.4, 3.3
> COC(=O)C[C@@H]1C[C@H]2c3cc(NC(=O)NC4CCCC4)ccc3O[C@H]2[C@H](CO)O1
→ 0.8, -0.1, -2.9, 1.3
> CCOC(=O)C1=CN(Cc2cccc(F)c2)S(=O)(=O)NC1c1ccc(F)c(Cl)c1 (configuration not stated)
→ -2.8, -27.8, -65.3, 12.3
> O=C(O)C[C@H]1C=C[C@H](NC(=O)c2ccccc2F)[C@@H](CO)O1
→ -2.8, 0.2, 1.5, -1.6
> CS(=O)(=O)Nc1ccc2c(c1)[C@@H]1C[C@H](CC(=O)NCCc3ccccc3)O[C@@H](CO)[C@@H]1O2
→ 0.6, -0.5, -7.2, -1.4
> COc1ccc(CNC(=O)C[C@H]2CC[C@@H](NC(=O)Nc3ccc4c(c3)OCO4)[C@@H](CO)O2)cc1
→ -10.2, -0.6, -0.9, 0.0
> Cc1ccc(S(=O)(=O)N[C@@H]2CC[C@@H](CCn3cc(-c4cccc(F)c4)nn3)O[C@H]2CO)cc1
→ 0.5, -8.4, -22.6, 3.2
> CC(C)[C@@H](NC(=O)OC(C)(C)C)c1cc(C(=O)c2c(-c3ccccc3)[nH]c3ccccc23)c(N)s1
→ -0.4, -1.8, -5.6, 35.5
> CN1C(=O)c2cc(NC(=O)C3CCC3)ccc2OC[C@H]2O[C@@H](CC(=O)NCc3ccccc3F)CC[C@H]21
→ -1.2, -1.0, -9.2, 0.6
> Cn1nc(NC(=O)C(F)(F)F)c2ncc(-c3ccccc3)nc21
→ -0.4, -0.1, -1.2, -5.1
> C[C@H]1CN([C@@H](C)CO)C(=O)c2cc(NC(=O)C3CCCCC3)ccc2O[C@@H]1CN(C)C(=O)Nc1ccc(C(F)(F)F)cc1
→ -2.2, 0.6, 2.1, 0.7
> O=C(c1ccncc1)N1C[C@@H]2[C@H](c3ccccc31)[C@@H](CO)N2C(=O)c1ccncc1
→ -0.2, 2.3, 1.4, -1.1
> CN(C)CC(=O)Nc1ccc2c(c1)[C@H]1C[C@H](CC(=O)N3CCCCC3)O[C@H](CO)[C@H]1O2
→ 0.4, 2.0, 7.6, -1.3
> O=C(Nc1cccc(C(F)(F)F)c1)C1Cc2c(-c3ccccc3Oc3ccccc3)ccnc2O1 (configuration not stated)
→ -12.0, 3.6, 11.8, -0.6
> C[C@H](CO)N1C[C@H](C)[C@H](CN(C)C(=O)CC2CC2)Oc2cc(C3=CCCC3)ccc2S1(=O)=O
→ -0.2, -4.3, -13.2, 0.4
> COC(=O)[C@H]1[C@H](CO)[C@H]2Cn3c(ccc(-c4cncnc4)c3=O)[C@H]2N1C(=O)C1CCC1
→ 2.3, 3.5, 2.7, -1.7
> CO[C@H]1CN(C)C(=O)c2ccc(NC(=O)Nc3cccc(Cl)c3)cc2OC[C@@H](C)NC[C@H]1C
→ 6.0, -3.6, 3.4, 1.7
> CC1=C(C(=O)N(C)C)CC(CC(=O)NC2CCCC2)C(=O)N1Cc1ccc(F)cc1 (configuration not stated)
→ -1.0, 17.1, 16.8, 3.7
> C[C@H]1CCCCO[C@@H](CN(C)CC2CCCCC2)[C@@H](C)CN([C@@H](C)CO)C(=O)c2cc(NS(=O)(=O)c3ccc(F)cc3)ccc2O1
→ 7.4, -5.5, -26.2, 20.1
> COc1ccccc1S(=O)(=O)N1[C@@H]2CNC[C@H]1[C@H]2c1ccc(-c2ccccc2C)cc1
→ -0.6, -1.1, -7.2, 3.7
> O=C1CN(S(=O)(=O)Cc2ccccc2)C[C@H]2[C@@H](c3ccc(C#Cc4ccc(F)cc4)cc3)[C@@H](CO)N12
→ 0.0, 0.7, 12.9, -0.7
> CN(C)C(=O)C[C@@H]1CC[C@@H]2[C@H](COC[C@H](O)CN2C(=O)c2ccncc2)O1
→ 7.9, 8.0, 10.5, -0.3
> CNC[C@@H]1Oc2cc(-c3ccc(C(=O)N(C)C)cc3)ccc2S(=O)(=O)N([C@@H](C)CO)C[C@H]1C
→ 0.1, -2.8, -0.9, 2.0
> CO[C@@H]1CN(C)C(=O)c2ccc(NC(=O)NC(C)C)cc2OC[C@H](C)N(Cc2ccccc2)C[C@H]1C
→ 2.2, -2.5, -11.2, 6.0
> C[C@@H]1CN([C@H](C)CO)C(=O)c2cc(-c3ccncc3)cnc2O[C@@H]1CN(C)S(=O)(=O)c1ccc(F)cc1
→ -4.7, -0.9, 2.0, -1.1
> CCC(=O)N1[C@H](CO)[C@H](c2ccc(-c3cccc(OC)c3)cc2)[C@@H]1CNC(C)=O
→ -5.2, -2.7, -3.9, -0.6
> COCC(=O)Nc1ccc2c(c1)C(=O)N(C)C[C@H](OC)[C@@H](C)CN(C)[C@@H](C)CO2
→ 0.4, -0.5, 4.9, 0.0
> C[C@H](O)C#Cc1cnc2c(c1)C(=O)N([C@@H](C)CO)C[C@H](C)[C@H](CN(C)C(=O)c1ccccc1)O2
→ 0.2, -3.8, -14.9, -2.4
> COCC(=O)N1[C@@H](CO)[C@H](c2ccccc2)C12CN(C(=O)c1ccccc1)C2
→ -5.1, 0.0, 0.5, 0.6
> C[C@H](CO)N1C[C@H](C)[C@H](CN(C)C)Oc2ncc(-c3cc4ccccc4o3)cc2C1=O
→ -0.3, -7.8, 5.8, -3.5
> COCC(=O)Nc1ccc2c(c1)OC[C@@H](C)NC[C@H](C)[C@H](OC)CN(C)C2=O
→ -0.2, 0.4, -1.6, -2.3

Compound profiles, from the list above. Order of values: MLL AF4-AF9 inh	Ecoli rRNA inh	Ecoli rRNA inh OD600	Ecoli rRNA inh RFP
COCC(=O)Nc1ccc2c(c1)OC[C@@H](C)NC[C@H](C)[C@H](OC)CN(C)C2=O is entered as -0.2	0.4	-1.6	-2.3
CC1=C(C(=O)N(C)C)CC(CC(=O)NC2CCCC2)C(=O)N1Cc1ccc(F)cc1 (configuration not stated) is entered as -1.0	17.1	16.8	3.7
COc1ccc(CNC(=O)C[C@H]2CC[C@@H](NC(=O)Nc3ccc4c(c3)OCO4)[C@@H](CO)O2)cc1 is entered as -10.2	-0.6	-0.9	0.0
CO[C@@H]1CN(C)C(=O)c2ccc(NC(=O)NC(C)C)cc2OC[C@H](C)N(Cc2ccccc2)C[C@H]1C is entered as 2.2	-2.5	-11.2	6.0
CCC(=O)N1[C@H](CO)[C@H](c2ccc(-c3cccc(OC)c3)cc2)[C@@H]1CNC(C)=O is entered as -5.2	-2.7	-3.9	-0.6

The list continues.
Fields – MLL AF4-AF9 inh, Ecoli rRNA inh, Ecoli rRNA inh OD600, Ecoli rRNA inh RFP
> Cc1ccc(S(=O)(=O)Nc2ccc3c(c2)C(=O)N([C@H](C)CO)C[C@@H](C)[C@H](CN(C)C)OCCCC[C@@H](C)O3)cc1
→ -1.9, 0.2, 8.2, -0.1
> O=C(N[C@@H]1CC[C@@H](CCNS(=O)(=O)Cc2ccccc2)O[C@H]1CO)c1ccc2c(c1)OCO2
→ -2.6, 2.0, -0.8, -0.7
> CNC[C@@H]1Oc2ccc(NS(=O)(=O)c3cn(C)cn3)cc2C(=O)N([C@@H](C)CO)C[C@H]1C
→ -5.7, 6.8, 10.0, -2.3
> C[C@@H]1CCCCO[C@@H](CN(C)C(=O)Nc2ccc(C(F)(F)F)cc2)[C@H](C)CN([C@@H](C)CO)C(=O)c2cc(NS(C)(=O)=O)ccc2O1
→ 0.0, -5.0, -15.4, 0.6
> CC(C)CC#Cc1ccc([C@H]2[C@H]3CN(C(=O)c4cccc(F)c4)CC(=O)N3[C@H]2CO)cc1
→ 0.5, -23.6, -57.5, 22.1
> C[C@H](NC(=O)C[C@@H]1C=C[C@H](NC(=O)C2CCOCC2)[C@H](CO)O1)c1ccccc1
→ -1.1, 0.3, 3.4, -1.3
> COCCNC(=O)C[C@H]1CC[C@@H]2[C@H](COc3ccc(NC(=O)C4CCCC4)cc3C(=O)N2C)O1
→ -1.5, 4.8, 4.2, -0.5
> O=C(Nc1ccccc1)[C@@H]1[C@@H](CO)[C@@H]2Cn3c(ccc(C4=CCCCC4)c3=O)[C@@H]2N1Cc1ccccn1
→ 4.8, -2.3, -10.6, 3.7

An excerpt; count on the stated rates, not on these rows.
